Vaccinia mCherry: vaccinia inhibition (mCherry reporter); AID 720579; Vaccinia virus mCherry reporter infection, fluorescence; about a quarter of the inactives have no number; hit rate 0.63% among 310,000; Potency, µM (doses to about 36.5 µM), for inactives: top-dose activity change, negative = inhibition, hits mostly inhibitors; active = well fitted inhibition curve with a large enough effect; inconclusive = small, poorly fitted or top-dose-only effect; inactive = no such curve, though single readings can be large or run the other way; tested in A549 cells; note: nearly all actives have a fitted effect of over 35% in size; inactives centre near -10
VACV Venus inh: vaccinia inhibition (Venus reporter); Vaccinia virus Venus reporter expression, fluorescence; Potency, µM (top dose mostly 36.5 µM), for inactives: at the top dose activity change, negative = inhibition, actives largely listed as inhibitors; hit rate 0.46% among 330,000; AID 720580; active means well fitted inhibition curve with a large enough effect; inconclusive means small, poorly fitted or top-dose-only effect; inactive means no such curve, though single readings can be large or run the other way; tested in A549 cells; note: nearly all actives have a fitted effect of over 30% in size; inactives centre near -10
Numbers without * were called inactive; i = inactive; ? = inconclusive; / = no result given; & = joins results of further samples; [ ] = remark or other dose. % is set by controls: 0 for no effect and ±100 for the full control effect; potency is the fitted concentration of half-maximal effect.

Under each structure: Vaccinia mCherry | VACV Venus inh
Cc1ccc(CNC(=O)C2CCN(c3nn4cc(-c5ccc(F)cc5)nc4s3)CC2)cc1
 : -8% | -4%
O=C1CCC([N+](=O)[O-])C(c2ccccc2Cl)N1 (centres undefined)
 : -11% | -11%
O=C(Nc1ccc(NC(=O)c2cccs2)cc1)c1ccc(Cl)cc1
 : -3% | -4%
O=C(COC(=O)Cc1cccs1)Nc1ccccc1
 : -9% | -3%
Cc1ccc(C(=O)N2CC(=O)Nc3ccc(Br)cc3C2c2ccc(F)cc2)cc1C (centres undefined)
 : -17% | -18%
CC(=O)N/C(=N\OCc1ccc(Br)cc1)c1nonc1NC(C)=O
 : i | -11%
CC12COC3(C(=O)NCCc4ccccc4)CC1CCC32C (centres undefined)
 : -23% | -17%
CC(=O)N(CCC(Cc1ccccc1)c1ccc2c(c1)OCO2)Cc1ccc(Cl)cc1 (centres undefined)
 : -27% | -20%
COC(=O)c1c(NC(=O)c2c(-c3ccccc3Cl)noc2C)sc2c1CCC2
 : -15% | -7%
CCC1(c2ccc(F)cc2)NC(=O)N(CC(=O)N2CCOCC2)C1=O (centres undefined)
 : -13% | -6%
O=C(COC(=O)Cn1cnc2ccccc2c1=O)Nc1ccc2c(c1)OCO2
 : ? | -27%
Cc1cc(NC(=O)c2ccccc2Cl)no1
 : / | -8%
COc1ccc(NC(=O)CCNC(=O)Cn2cnc3sc4c(c3c2=O)CCCC4)cc1OC
 : i | -5%
CCN(C(=O)CN1CCC(C)CC1)c1c(N)n(Cc2ccccc2)c(=O)[nH]c1=O
 : -11% | -11%
CCN(CC)c1ccc(C=C2C(=O)OC(c3ccccc3)OC2=O)cc1 (centres undefined)
 : i | -17%

Individual results from the list.
In Vaccinia mCherry, `COC(=O)c1c(NC(=O)c2c(-c3ccccc3Cl)noc2C)sc2c1CCC2` is entered as -15%
In VACV Venus inh, `CC12COC3(C(=O)NCCc4ccccc4)CC1CCC32C` (centres undefined) is entered as -17%

(next part)
Under each structure: Vaccinia mCherry | VACV Venus inh
Cc1ccc(C)c(NC(=O)CN(C)C(=O)c2cc3c(s2)CCCCC3)c1
 : -5% | -22%
O=C(CN1CCN(S(=O)(=O)c2ccc(Cl)c(Cl)c2)CC1)N1CCCCC1
 : -26% | -5%
CCC1(CC(C)C)C(=O)NC(=S)NC1=O
 : i | -12%
Cc1ccc(Cc2nc3ccccc3nc2SCC(=O)N2CCc3ccccc32)cc1
 : -5% | -12%
CC(=O)Nc1cccc(/C(C)=N/Nc2ccc(S(=O)(=O)Nc3ccccc3C(=O)O)cc2[N+](=O)[O-])c1
 : i | -12%
O=C(NNc1cccc(Cl)c1)c1cccnc1Oc1ccccc1
 : -20% | -6%
CC(C)(C)C1CCc2c(sc(NC(=O)c3cccs3)c2C(N)=O)C1 (centres undefined)
 : -10% | 0%
CCOC(=O)/C(C#N)=C/c1ccc(N2CCN(C)CC2)cc1
 : -9% | 1%
CCOC(=O)c1c(NC(=O)c2cccs2)sc(CC)c1-c1cccs1
 : -16% | -10%
Cc1cccc(CN2CCCC(C(=O)c3ccc4c(c3)OCO4)C2)n1 (centres undefined)
 : -1% | -15%
O=C(O)C1CCCCC1C(=O)Nc1ccc(-c2ccccc2)cc1 (centres undefined)
 : -12% | -1%
Cc1cc2ncn(CCOc3ccccc3)c2cc1C
 : -20% | -21%
Cc1nc(=S)c2ccccc2[nH]1
 : / | -9%
CN(CCCn1c(=S)[nH]c2ncccc2c1=O)Cc1ccccc1
 : -9% | -5%
Cc1ccc(N=Cc2c(C)[nH]n(-c3ccccc3)c2=O)nc1
 : -6% | -16%
CS(=O)(=O)N1CCN(C(=O)c2ccccc2)C1
 : -28% | -12%
COc1ccc(-c2cc(C(=O)N3CCN(c4ccc(F)cc4)CC3)no2)cc1OC
 : -8%&-4% | -4%&-6%
COCCNc1nnc(SCC(=O)c2c[nH]c3ccccc23)s1
 : -14% | -13%
Cc1ccc(C(O)CCc2ccc(N)cc2)cc1 (centres undefined)
 : i | -6%
CC1CCc2sc(NC(=O)c3ccc(N4C(=O)CCC4=O)cc3)c(C(N)=O)c2C1 (centres undefined)
 : i | -8%
Cc1ccc(Nc2c(-c3ccccc3O)nc3ccc(Br)cn23)cc1
 : -14% | 2%
CC(=O)Nc1ccc(OC(=O)c2c(-c3ccccc3Cl)noc2C)cc1
 : -16% | -6%
CCc1cccc(N(C(=O)c2csnn2)C(C(=O)NC2CCCCC2)c2cccnc2)c1 (centres undefined)
 : -8% | -3%
CCCc1nc2ccccc2c2nc(N)nn12
 : -13% | -9%
COc1ccc(C(=O)/C=C/C(=O)N(CC(=O)NC2CCCCC2)Cc2ccccc2)c(O)c1
 : i | -13%
COc1cc(Nc2cc(C)nc3nc(C)nn23)cc(OC)c1OC
 : -5% | -2%
CN(C)c1ccc(C=C2C(=O)OC(C)(C)OC2=O)cc1
 : -6% | 2%
CCCOC(=O)c1ccc(NC(=O)Oc2ccccc2)cc1
 : -20% | -6%
COc1ccc(-c2cnc3ncnn3c2N)cc1
 : -25% | -1%
CCOC(=O)c1cccc(NC(=O)c2c(NCc3ccccc3)[nH]c(=O)[nH]c2=O)c1
 : -9% | -20%

Next section, starting with the last two of the part before.
Under each structure: Vaccinia mCherry | VACV Venus inh
COc1ccc(-c2cnc3ncnn3c2N)cc1
 : -25% | -1%
CCOC(=O)c1cccc(NC(=O)c2c(NCc3ccccc3)[nH]c(=O)[nH]c2=O)c1
 : -9% | -20%
CC(C(=O)O)n1c(C(F)(F)F)nc2ccccc21 (centres undefined)
 : 1% | 14%
Cc1ccc(C(=O)NCCc2ccccn2)cc1S(=O)(=O)N1CCOCC1
 : 18% | -2%
Cc1ccc(S(=O)(=O)N2CCN(C(=O)c3c(C)nn(-c4ccccc4)c3Cl)CC2)cc1
 : -3% | -14%
CCOc1ccc(NC(=O)CCC(=O)NNC(=O)c2ccc(Br)o2)cc1
 : -12% | -1%
Cc1cccc(OCc2nnc(SCC(=O)NC3CCCCC3)n2C)c1
 : -4% | 1%
Cc1nn(-c2ccccc2)c(C)c1NC(=O)COC(=O)CCCOc1ccccc1
 : -14% | -8%
O=C(Nc1ccccc1N1CCCC1)C1CCN(C(=O)c2ccc(Cl)cc2)CC1
 : -2% | -17%
C=CCn1c(Cc2ccc(OCC)cc2)nnc1SCC(N)=O
 : -2% | -7%
CSc1ncnc2c1ncn2CCCNCCc1ccccn1
 : -9% | -1%
Cc1cc(C)c(NC(=O)CCN2C(=O)c3ccccc3S2(=O)=O)c(C)c1
 : -3% | -9%
CC(C)c1nc2ccc(C(=O)O)cc2[nH]1
 : 6% | -4%
CC(C)NC(=O)C1CCN(C(=O)c2ccc(-c3ccccc3)cc2)CC1
 : / | -18%
CCOC(=O)N1CCN(Cc2ccc3c(c2)OCO3)CC1
 : -13% | -10%
Cc1sc(NC(=O)c2ccco2)c(CN2CCC(C)CC2)c1C
 : i | -10%
CC(=O)OC1CC(OC2C(O)CC(OC3C(O)CC(OC4CCC5(C)C(CCC6C5CCC5(C)C(C7=CC(=O)OC7)C(O)CC65O)C4)OC3C)OC2C)OC(C)C1OC1OC(CO)C(O)C(O)C1O (centres undefined)
 : 0.28µM* | 0.28µM*
O=C(CN(C(=O)c1nsc(Cl)c1Cl)c1cccc(F)c1)NC1CCCC1
 : i | -21%
CC(=O)N1CCc2nc3sc(C(=O)c4ccc(F)cc4)c(N)c3c(C(F)(F)F)c2C1
 : -13%[7.34 µM] | -13%[7.34 µM]
CC(C)(C)c1ccc(-c2ncccc2O)cc1
 : ? | -18%
Cc1noc(C)c1S(=O)(=O)Nc1ccc2c(c1)C(=O)N([C@H](C)CO)C[C@H](C)[C@@H](CN(C)C(=O)NC1CCCCC1)O2
 : i | -5%
COc1ccc(/C=N/Nc2nc(-c3ccc(Cl)cc3)cc(C(F)(F)F)n2)c(OC)c1
 : -9% | -4%
COc1cc(/C=N\NC(=O)CN2CCOCC2)ccc1OCC(=O)Nc1ccc(C)c(C)c1
 : -28% | -23%
Cc1ccc(-c2nnc3c4ccccc4c(C)nn23)cc1NC(=O)c1ccccc1Cl
 : -12% | -16%
Cc1ccc(N2CC(NC(=O)c3ccccc3Br)CC2=O)cc1 (centres undefined)
 : -5%[7.34 µM] | -7%[7.34 µM]
Cc1ccc2c(c1)NC(=O)C(CC(=O)NCCN(C)C)O2 (centres undefined)
 : 3% | -3%
COC(=O)C1CSC(C(=O)OC)N1C(=O)Nc1ccc(Cl)c(Cl)c1 (centres undefined)
 : / | -6%
CC(C)(C)c1ccc(S(=O)(=O)N2CCCCC2C(=O)NCc2ccccn2)cc1 (centres undefined)
 : -8% | 0%
O=C1CN(C(=O)COc2ccc(Cl)cc2Cl)C(c2ccc(F)cc2)c2cc(F)ccc2N1 (centres undefined)
 : -13% | -11%
CCOC(=O)c1oc2ccc(S(=O)(=O)n3nc(-c4cc(OC)c(OC)c(OC)c4)cc3N)cc2c1C
 : -29% | -25%
Cn1c(SCC(=O)c2ccc3c(c2)OCO3)nnc1-c1ccccn1
 : / | -22%
CC(C)n1nnnc1SCC(=O)Nc1ccccc1N1CCOCC1
 : -16% | -5%
CC1CCc2c(sc3nc(-c4cc5cc(Br)ccc5oc4=O)[nH]c(=O)c23)C1 (centres undefined)
 : -13% | -9%
CCOc1nnc(C)c2c(C)n(-c3cccc(Cl)c3)nc12
 : i | -12%
Cc1ccc(N(Cc2cccs2)C(=O)COc2cccc(C)c2)cc1
 : 2% | 4%
CCCCc1c(O)cc(C)[nH]c1=O
 : -2% | -8%
COc1ccc(-c2ccc3oc(-c4ccc(OC)cc4)c(C#CC4(O)CCCCC4)c3c2)cc1
 : -20% | -11%
CCOC(=O)c1ccc(CNC(=O)C2CCC(=O)N(Cc3cccc(OC)c3)C2)o1 (centres undefined)
 : i | -13%
O=C(c1ccccc1F)N1CCN(c2ccc([N+](=O)[O-])c3cccnc23)CC1
 : -8% | -13%
O=C(NCc1cccnc1)/C(=C/c1ccc(-c2cccc(C(F)(F)F)c2)o1)NC(=O)c1ccccc1
 : -24% | -23%
COc1ccc(S(=O)(=O)N2CCCCCC2)cc1NC(=O)CN1C(=O)CNC1=O
 : -18% | -2%
COc1cccc(CN2C(=O)C(C)N(C(=O)c3ccccc3)c3ccccc32)c1 (centres undefined)
 : -24% | -25%
Cc1ccc(NC(=O)c2ccco2)c(OCc2cc(=O)n3cc(C)sc3n2)c1
 : -18% | -9%
CN(C)CCN1C(=O)c2cccc3cc([N+](=O)[O-])cc(c23)C1=O
 : 1.1µM* | ?
Cc1ccc(C(=O)NCCc2sc(C)nc2C)cc1
 : -1% | -10%
O=C(COC(=O)c1n[nH]c(=O)c2ccccc12)Nc1ccccc1
 : -18% | -6%
CN(C)CCN=Cc1c(O)n(Cc2ccccc2)c(=O)c2ccccc12
 : -16% | -8%

Reprinted at random: 5 compounds from above.
Under each structure: Vaccinia mCherry | VACV Venus inh
CCOc1nnc(C)c2c(C)n(-c3cccc(Cl)c3)nc12
 : i | -12%
CN(C)CCN1C(=O)c2cccc3cc([N+](=O)[O-])cc(c23)C1=O
 : 1.1µM* | ?
O=C(NCc1cccnc1)/C(=C/c1ccc(-c2cccc(C(F)(F)F)c2)o1)NC(=O)c1ccccc1
 : -24% | -23%
CN(C)CCN=Cc1c(O)n(Cc2ccccc2)c(=O)c2ccccc12
 : -16% | -8%
O=C(COC(=O)c1n[nH]c(=O)c2ccccc12)Nc1ccccc1
 : -18% | -6%

Additional structures
Under each structure: Vaccinia mCherry | VACV Venus inh
COc1ccc(C2N(c3cccc(Cl)c3)C(=O)C3CCCN32)cc1 (centres undefined)
 : -4% | -5%
Cc1ccc(C2=NS(=O)(=O)N(C)C(C(=O)NCc3ccccn3)=C2)cc1
 : 27% | 1%
COc1cccc(CNC(=O)C(=O)N2CCC3(CC2)OCCN3S(=O)(=O)c2ccc(C)cc2)c1
 : -10% | -24%
CCCn1c(=N)c(C(=O)NC2CCCC2)cc2c(=O)n3cccc(C)c3nc21
 : 5% | -2%&-18%
COc1cc(CN2CCCC(C(=O)c3sccc3C)C2)cc(OC)c1O (centres undefined)
 : ? | -10%
Cc1ccc2c(c1)N(CC(=O)NCc1cccc(Cl)c1)C(=O)c1cccnc1O2
 : -10% | -3%
Cc1ccc2c(CN3CCN(C(=O)c4ccc(Br)cc4)CC3)cc(=O)oc2c1
 : -15% | -10%
Cc1ccc(COC(=O)c2nn(-c3ccccc3)nc2N)cc1
 : -1% | -14%
Cc1cc(C(=O)Nc2sc3c(c2C#N)CCCCC3)cs1
 : -3% | -8%
CCOC(=O)c1ccc(NC(=O)c2c(NC(C)=O)sc3c2CCC(C)C3)cc1 (centres undefined)
 : -13% | -9%
CCCCOc1ccc(N(CC(=O)NCc2ccccc2)C(=O)c2csnn2)cc1
 : -22% | -12%
O=C(N/C=C/c1ccc(Cl)cc1)NCc1ccc(Cl)cc1
 : / | -16%
O=C(O)CCC(=O)NNC(=O)COc1ccc2ccccc2c1Br
 : 6% | -18%
CC1CC(C)CN(CC(C)(C)NS(=O)(=O)c2ccc(Cl)cc2)C1 (centres undefined)
 : -17% | -2%
CCC(=O)N1CCc2cc(CNC(=O)Nc3ccccc3Cl)ccc21
 : -18% | -13%
C=CCc1c(C)nc(N)[nH]c1=O
 : -17% | -12%

No new results follow: entries from further up.
Under each structure: Vaccinia mCherry | VACV Venus inh
COc1ccc(C2N(c3cccc(Cl)c3)C(=O)C3CCCN32)cc1 (centres undefined)
 : -4% | -5%
Cc1ccc(C2=NS(=O)(=O)N(C)C(C(=O)NCc3ccccn3)=C2)cc1
 : 27% | 1%
